Compound activity deposited in PubChem BioAssay by Broad Institute.
UUG fidelity – alters start codon recognition fidelity in yeast | activity score, % at 18.7 µM | S. cerevisiae UUG-firefly luciferase reporter, luminescence/redox ratio | AID 602363 | 350,000 tested, 0.13% active;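 active = replicate mean at a twofold rise or more, about +100% in these data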;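 note: firefly luciferase made from a UUG start codon reports start codon fidelity; reporter light over untreated wells divided by growth signal over untreated wells; some hits fall short of that in this replicate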
Env fusion inh – HIV envelope-mediated fusion inhibition. HeLa-JRFL Env/CEM21 cell fusion, luciferase. inhibition, % at 12.3 µM. 360,000 tested, 1.1% active. AID 651610;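 active = mean replicate inhibition score of at least 50 and every replicate individually at or above 50; inconclusive = only one of the two criteria met; inactive = mean below 50 and not all replicates reaching 50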;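 note: 0% = plate neutral controls and 100% = maraviroc near 300 nM; one replicate is shown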
Active calls of the source: *; ? = inconclusive; [ ] = dose if it differs, or a comment.

SMILES	UUG fidelity	Env fusion inh
C[C@H]1CN([C@@H](C)CO)C(=O)Cc2cc(NS(=O)(=O)c3cccs3)ccc2O[C@@H]1CN(C)C(=O)Nc1ccc(C(F)(F)F)cc1	-9.8	-11.6[16.7 µM]
CO[C@@H]1CN(C)C(=O)c2ccc(NC(=O)c3cnccn3)cc2OC[C@@H](C)N(CC2CC2)C[C@H]1C	0.1	19.4[16.7 µM]
O=C(C[C@@H]1C[C@@H]2c3cc(NC(=O)Nc4ccc(C(F)(F)F)cc4)ccc3O[C@@H]2[C@@H](CO)O1)NCc1ccccn1	-13.9	19.9[16.7 µM]
C[C@@H]1CCCCO[C@H](CN(C)C(=O)Nc2cccc3ccccc23)[C@H](C)CN([C@H](C)CO)C(=O)c2cc(NS(=O)(=O)c3cn(C)cn3)ccc2O1	10.3	-5.2[16.7 µM]
O=C(NCC[C@H]1CC[C@H](NC(=O)C2CCC2)[C@H](CO)O1)c1ccc(F)cc1	6.8	8.7[16.7 µM]
CCC(=O)N(C)C[C@H]1Oc2cc(C#CCC(C)C)ccc2S(=O)(=O)N([C@@H](C)CO)C[C@@H]1C	16.6	15.3[16.7 µM]
O=C(NCC[C@H]1CC[C@@H](NC(=O)c2cccnc2)[C@@H](CO)O1)Nc1ccc(F)cc1	11.8	4.5[16.7 µM]
C[C@H]1CN([C@@H](C)CO)C(=O)Cc2cc(NC(=O)Cc3ccccc3)ccc2O[C@@H]1CN(C)Cc1ccc(Cl)c(Cl)c1	0.1	-26.8[16.7 µM]
C[C@@H]1CN([C@H](C)CO)C(=O)c2cc(-c3cccc(C(=O)N(C)C)c3)cnc2O[C@@H]1CN(C)CC1CC1	6.9	-0.3[16.7 µM]
C[C@H]1CN([C@@H](C)CO)C(=O)c2cc(/C=C/c3ccccc3)cnc2O[C@@H]1CN(C)C(=O)c1cccnc1	-7.5	10.2[16.7 µM]
C[C@@H]1CN([C@@H](C)CO)C(=O)c2cc(NC(=O)Nc3cccc4ccccc34)ccc2O[C@@H](C)CCCCO[C@H]1CN(C)Cc1ccc(C(=O)O)cc1	5.8	4.7[16.7 µM]
C[C@H]1CCCCO[C@@H](CN(C)S(=O)(=O)c2ccccc2)[C@@H](C)CN([C@@H](C)CO)C(=O)c2cc(N(C)C)ccc2O1	46.3	-37.2[16.7 µM]
CN1CCN(C(=O)C[C@H]2C[C@@H]3c4cc(NC(=O)NC5CCCC5)ccc4O[C@@H]3[C@@H](CO)O2)CC1	-3.1	-9.0[16.7 µM]
CNC[C@@H]1Oc2c(NS(C)(=O)=O)cccc2C(=O)N([C@H](C)CO)C[C@H]1C	-13.4	5.5[16.7 µM]
CCCN(C)C[C@@H]1Oc2cc(C3=CCCCC3)ccc2S(=O)(=O)N([C@@H](C)CO)C[C@@H]1C	155.9*	27.9[16.7 µM]
CC(=O)N(C)C[C@@H]1Oc2cc(-c3ccccc3C)ccc2S(=O)(=O)N([C@H](C)CO)C[C@@H]1C	-2.9	2.8[16.7 µM]
C[C@H](CO)N1C[C@H](C)[C@@H](CN(C)S(C)(=O)=O)OCc2cn(nn2)CCCC1=O	-4.2	-26.3
C[C@@H]1CN([C@H](C)CO)C(=O)c2cc(C#CC3CC3)cnc2O[C@H]1CN(C)C	-4.0	-13.1[16.7 µM]
CC(C)NC(=O)N[C@H]1CC[C@@H](CC(=O)N2CCCCC2)O[C@H]1CO	-3.8	-6.4[16.7 µM]
C[C@@H]1CN([C@@H](C)CO)C(=O)c2cc(NC(=O)Cc3ccccc3)ccc2O[C@@H](C)CCCCO[C@H]1CN(C)C(=O)c1ccccc1	6.6	2.8[16.7 µM]

Compounds listed so far that contain a halogen (five):
SMILES	UUG fidelity	Env fusion inh
C[C@H]1CN([C@@H](C)CO)C(=O)Cc2cc(NS(=O)(=O)c3cccs3)ccc2O[C@@H]1CN(C)C(=O)Nc1ccc(C(F)(F)F)cc1	-9.8	-11.6[16.7 µM]
O=C(C[C@@H]1C[C@@H]2c3cc(NC(=O)Nc4ccc(C(F)(F)F)cc4)ccc3O[C@@H]2[C@@H](CO)O1)NCc1ccccn1	-13.9	19.9[16.7 µM]
O=C(NCC[C@H]1CC[C@H](NC(=O)C2CCC2)[C@H](CO)O1)c1ccc(F)cc1	6.8	8.7[16.7 µM]
O=C(NCC[C@H]1CC[C@@H](NC(=O)c2cccnc2)[C@@H](CO)O1)Nc1ccc(F)cc1	11.8	4.5[16.7 µM]
C[C@H]1CN([C@@H](C)CO)C(=O)Cc2cc(NC(=O)Cc3ccccc3)ccc2O[C@@H]1CN(C)Cc1ccc(Cl)c(Cl)c1	0.1	-26.8[16.7 µM]

Additional records:
SMILES	UUG fidelity	Env fusion inh
COc1ccc(NC(=O)Nc2ccc3c(c2)C(=O)N([C@@H](C)CO)C[C@H](C)[C@H](CN(C)C(=O)c2ccccc2)OCCCC[C@H](C)O3)cc1	7.6	56.4*[16.7 µM]
COc1ccc(C#Cc2ccc3c(c2)O[C@H](CN(C)C(=O)Nc2cccc(OC)c2)[C@H](C)CN([C@@H](C)CO)S3(=O)=O)cc1	-14.4	-23.5[16.7 µM]
C[C@H](CO)N1C[C@H](C)[C@H](CN(C)S(=O)(=O)c2ccc(F)cc2)Oc2ccc(NC(=O)Cn3cnnn3)cc2C1=O	5.5	-3.3[16.7 µM]
CCCC(=O)Nc1ccc2c(c1)C(=O)N(C)[C@H]1CC[C@H](CC(=O)NCCCN(C)C)O[C@@H]1CO2	-13.9	-5.4[16.7 µM]
COCC(=O)Nc1ccc2c(c1)[C@H]1C[C@H](CC(=O)NCCc3ccccc3)O[C@H](CO)[C@H]1O2	-0.5	-30.9[16.7 µM]
Cc1ccc(S(=O)(=O)Nc2cccc3c2O[C@H](CN(C)S(=O)(=O)c2ccccc2)[C@@H](C)CN([C@@H](C)CO)C3=O)cc1	-2.2	-51.1[16.7 µM]
CNC(C)C(=O)NC(C(=O)NC(C)C(=O)Nc1cccc2ccccc12)C(C)C (stereo unspecified)	-9.0	-38.3
C[C@H]1CCCCO[C@H](CN(C)Cc2ccc(C(=O)O)cc2)[C@@H](C)CN([C@@H](C)CO)C(=O)c2cc(NS(=O)(=O)c3ccc(Cl)cc3)ccc2O1	8.5	-10.7[16.7 µM]
C[C@@H]1CCCCO[C@@H](CN(C)C(=O)C2CCCCC2)[C@H](C)CN([C@@H](C)CO)C(=O)c2cc(NC(=O)NC3CCCCC3)ccc2O1	0.6	2.2[16.7 µM]
Cc1noc(C)c1NC(=O)Nc1ccc2c(c1)C(=O)N([C@H](C)CO)C[C@H](C)[C@H](CN(C)C(=O)Nc1cccc3ccccc13)OCCCC[C@H](C)O2	22.3	4.2[16.7 µM]
O=C(C[C@H]1CC[C@@H](NC(=O)Nc2ccc(C(F)(F)F)cc2)[C@H](CO)O1)NCCN1CCCC1	-8.2	-11.4[16.7 µM]
CCCC(=O)Nc1ccc2c(c1)C(=O)N(C)[C@@H]1CC[C@@H](CC(=O)NCCc3ccncc3)O[C@@H]1CO2	0.7	-0.2[16.7 µM]
O=C(Nc1ccccc1)N[C@H]1CC[C@H](CCNS(=O)(=O)c2cccc(F)c2)O[C@H]1CO	21.3	-5.5[16.7 µM]
C[C@@H]1CCCCO[C@H](CN(C)S(=O)(=O)c2cn(C)cn2)[C@@H](C)CN([C@@H](C)CO)C(=O)c2cc(NC(=O)Nc3ccc(F)cc3)ccc2O1	9.9	-7.9[16.7 µM]
C[C@H](CO)N1C[C@H](C)[C@@H](CN(C)S(=O)(=O)c2cccc(F)c2)Oc2ncc(-c3cccc(F)c3)cc2C1=O	-4.4	39.9[16.7 µM]
Cc1ccc(S(=O)(=O)N(C)C[C@@H]2OCCCC[C@@H](C)Oc3ccc(NS(=O)(=O)c4cn(C)cn4)cc3C(=O)N([C@@H](C)CO)C[C@H]2C)cc1	-7.9	-101.8[16.7 µM]
C[C@H]1CN([C@@H](C)CO)C(=O)c2cc(C3=CCCC3)cnc2O[C@H]1CN(C)Cc1cccnc1	-7.9	2.1[16.7 µM]
C[C@@H]1CN([C@@H](C)CO)C(=O)c2cc(NC(=O)Nc3ccc4c(c3)OCO4)ccc2O[C@@H](C)CCCCO[C@H]1CN(C)C(=O)C1CCCCC1	0.0	?
N#C[C@H]1[C@@H](c2ccc(-c3cccnc3)cc2)[C@H](CO)N1C(=O)C1CC1	17.3	11.5[16.7 µM]
C[C@H](CO)N1C[C@H](C)[C@@H](CN(C)S(=O)(=O)c2ccc(F)cc2)Oc2ccc(NC(=O)C3CC3)cc2CC1=O	-1.4	-3.7[16.7 µM]
CCS(=O)(=O)NCC[C@H]1CC[C@@H](NC(=O)C2CCCC2)[C@H](CO)O1	4.9	-4.8[16.7 µM]
C[C@H](CO)N1C[C@H](C)[C@H](CN(C)C(=O)Nc2ccc(C(F)(F)F)cc2)Oc2ccc(NC(=O)Cc3cn(C)c4ccccc34)cc2CC1=O	-6.4	-3.0[16.7 µM]
CC(C)C#Cc1ccc2c(c1)O[C@H](CN(C)Cc1ccccn1)[C@@H](C)CN([C@@H](C)CO)S2(=O)=O	-6.0	-27.6[16.7 µM]
CC(C)C#Cc1cnc2c(c1)C(=O)N([C@H](C)CO)C[C@H](C)[C@@H](CN(C)C(=O)c1cccc(F)c1)O2	25.4	7.4[16.7 µM]
C[C@H](CO)N1C[C@H](C)[C@H](CN(C)Cc2ccc(C(=O)O)cc2)Oc2c(cccc2N(C)C)C1=O	-11.0	-13.9[16.7 µM]
CCCNc1ncnc2ccc(Br)cc12	5.0	22.4[16.7 µM]
C[C@@H]1CN([C@H](C)CO)C(=O)c2cc(C#CCC3CCCC3)cnc2O[C@H]1CN(C)C(=O)CC1CC1	30.5	4.9[16.7 µM]
C[C@H]1CN([C@@H](C)CO)C(=O)c2cc(C3=CCCCC3)cnc2O[C@@H]1CN(C)Cc1ccccn1	-8.8	2.8[16.7 µM]
C[C@@H]1CCCCO[C@@H](CN(C)Cc2ccc3c(c2)OCO3)[C@@H](C)CN([C@@H](C)CO)C(=O)c2cc(NS(=O)(=O)c3cn(C)cn3)ccc2O1	0.7	-8.3[16.7 µM]
C[C@@H]1CCCCO[C@H](CN(C)S(=O)(=O)c2cn(C)cn2)[C@@H](C)CN([C@@H](C)CO)C(=O)c2cc(NC(=O)Cc3ccccc3)ccc2O1	12.7	-7.5[16.7 µM]
CNC(=O)C[C@H]1CC[C@H]2[C@@H](COc3ccc(NC(=O)c4cccc(F)c4)cc3C(=O)N2C)O1	-19.7	8.0[16.7 µM]
Cc1ccc(S(=O)(=O)N(C)C[C@H]2Oc3cc(C#Cc4ccccc4)ccc3S(=O)(=O)N([C@H](C)CO)C[C@H]2C)cc1	-7.8	20.7[16.7 µM]
CN(C)CCCNC(=O)C[C@H]1CC[C@H](NS(=O)(=O)c2ccccc2)[C@@H](CO)O1	-12.0	1.1[16.7 µM]
COc1cccc(-c2cn(CC[C@H]3CC[C@@H](NC(=O)CC4CC4)[C@@H](CO)O3)nn2)c1	-3.0	-101.4[16.7 µM]
CC(C)NC(=O)N(C)C[C@@H]1Oc2ncc(-c3ccccc3F)cc2C(=O)N([C@@H](C)CO)C[C@@H]1C	-1.1	-1.3[16.7 µM]
C[C@@H]1CCCCO[C@H](CN(C)C(=O)Nc2ccc3c(c2)OCO3)[C@H](C)CN([C@H](C)CO)C(=O)c2cc(NC(=O)c3ccncc3)ccc2O1	3.2	4.3[16.7 µM]
O=C(CCN1CCCCC1)NCC[C@@H]1CC[C@@H](NC(=O)C2CC2)[C@@H](CO)O1	-4.9	1.3[16.7 µM]
CO[C@H]1CN(C)C(=O)c2cc(NC(=O)Nc3cccc(F)c3)ccc2OC[C@@H](C)N(C)C[C@H]1C	6.9	-17.4[16.7 µM]
Cc1cc(C(=O)Nc2cccc3c2O[C@@H](CN(C)C(=O)Nc2ccc(C(F)(F)F)cc2)[C@@H](C)CN([C@H](C)CO)C3=O)n(C)n1	5.3	-1.9[16.7 µM]
Cc1noc(C)c1S(=O)(=O)N(C)C[C@H]1OCCCC[C@@H](C)Oc2ccc(NC(=O)Cc3ccccc3)cc2C(=O)N([C@@H](C)CO)C[C@@H]1C	1.8	-6.8[16.7 µM]
CCCN(C)C[C@H]1Oc2ncc(Br)cc2C(=O)N([C@H](C)CO)C[C@H]1C	-4.2	-7.0[16.7 µM]
C[C@@H]1CN([C@H](C)CO)S(=O)(=O)c2ccc(-c3cccc(F)c3)cc2O[C@@H]1CN(C)C(=O)C1CC1	10.7	-1.9[16.7 µM]
C[C@H](CO)N1C[C@H](C)[C@H](CN(C)Cc2ccc(C(=O)O)cc2)Oc2ccc(NC(=O)C3CCCCC3)cc2CC1=O	-13.4	-1.9[16.7 µM]
CC(C)NC(=O)Nc1cccc2c1O[C@H](CN(C)S(=O)(=O)c1ccc(F)cc1)[C@H](C)CN([C@@H](C)CO)C2=O	8.2	13.4[16.7 µM]
COCC(=O)Nc1ccc2c(c1)C(=O)N(C)[C@H]1CC[C@H](CC(=O)Nc3ccccc3)O[C@H]1CO2	5.1	12.1[16.7 µM]
Cc1noc(C)c1S(=O)(=O)N(C)C[C@@H]1OCCCC[C@H](C)Oc2ccc(NC(=O)Nc3ccc(F)cc3)cc2C(=O)N([C@H](C)CO)C[C@@H]1C	3.6	-114.1[16.7 µM]
CN1C(=O)c2cc(NC(=O)c3ccccc3)ccc2OC[C@@H]2O[C@@H](CC(=O)O)CC[C@@H]21	-8.4	18.4[16.7 µM]
CN1C(=O)c2cc(NC(=O)c3ccc(F)cc3)ccc2OC[C@@H]2O[C@@H](CC(=O)NCC3CC3)CC[C@@H]21	7.0	-14.7[16.7 µM]

A portion of the library; count on the stated rates, not on these rows.
